Compound activity deposited in PubChem by several laboratories.
Rce1 inh: yeast Rce1p protease inhibitors, primary screen, biochemical, fluorescence, cell-free homogeneous | CAAX prenyl protease 2 (Saccharomyces cerevisiae (strain ATCC 204508 / S288c)), Q03530 | yeast membranes, quenched prenylated peptide cleavage fluorescence | calls only | actives 0.27% (n = 290,000) | AID 2563, 2010;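 active = fall in fluorescence gain of 50% or more versus controls, with final raw signal at or below 3038400; inconclusive = same 50% fall but final raw signal above 3038400; inactive = fall in fluorescence gain under 50%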;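 also: plate controls were neutral control wells for no effect and wells lacking membranes for full effect; tested at 10 µM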
Target sequence (Q03530 whole entry, looked up): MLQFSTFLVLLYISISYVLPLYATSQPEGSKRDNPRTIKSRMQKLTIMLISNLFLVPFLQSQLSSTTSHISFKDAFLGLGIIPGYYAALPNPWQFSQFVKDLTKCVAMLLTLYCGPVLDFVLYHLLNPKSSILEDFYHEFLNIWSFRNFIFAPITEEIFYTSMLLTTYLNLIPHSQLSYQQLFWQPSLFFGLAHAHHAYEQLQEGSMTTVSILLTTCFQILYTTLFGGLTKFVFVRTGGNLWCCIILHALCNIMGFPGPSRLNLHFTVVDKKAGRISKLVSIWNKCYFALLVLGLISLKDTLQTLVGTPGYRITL
MT1-MMP act inh: blockers of MT1-MMP proenzyme processing, primary screen, HT1080 RFP-PRO-GFP cells, GFP/RFP fluorescence; actives 0.061% (n = 360,000); Matrix metalloproteinase-14 (Homo sapiens), P50281; GFP/RFP ratio change, % at 20 µM; GFP/RFP ratio fluorescence, overnight; percent of plate control window, DMSO zero;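 active = GFP/RFP ratio change of at least 30% with cell ATP level not reduced by more than half and red fluorescence within 50% of control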; also: strong numbers were not always called active
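Assay system: HT1080 RFP-PRO-GFP cells. Benchmarks: DMSO vehicle wells and RFP-L50D-GFP reporter cell wells. Times: overnight cell settling, then overnight compound exposure, 37 °C, 5% CO2. Compound: 20 µM single dose, 1% DMSO. Read-out basis: GFP/RFP fluorescence ratio.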
UUG fidelity: modulators of yeast start codon fidelity, primary screen, whole organism, S. cerevisiae, single point, plate reader | S. cerevisiae UUG-firefly luciferase reporter, luminescence/redox ratio | activity score, % at 18.7 µM | actives 0.13% (n = 350,000);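 active = replicate mean at a twofold rise or more, about +100% in these data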;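 also: firefly luciferase made from a UUG start codon reports start codon fidelity; reporter light over untreated wells divided by growth signal over untreated wells; some hits fall short of that in this replicate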
CSC inhib: cancer stem cell viability inhibitors, primary screen, luminescence. inhibition, % at 7.5 µM. cancer stem cell-like cells viability. actives 1.1% (n = 300,000). AID 2717, 2010;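 active = mean at 75% or more and at least half the replicates too; inconclusive = mean and replicates disagree; tested in HMLE shEcad cells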;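 also: 0% = median of negative and 100% = median of positive control wells; the first replicate is given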
Env fusion inh: inhibitors of HIV-1 Env-driven cell-cell fusion, primary screen, HeLa-JRFL effector, CEM21 target cells, luciferase | inhibition, % at 12.3 µM | actives 1.1% (n = 360,000);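 active = mean replicate inhibition score of at least 50 and every replicate individually at or above 50; inconclusive = only one of the two criteria met; inactive = mean below 50 and not all replicates reaching 50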;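 also: 0% = plate neutral controls and 100% = maraviroc near 300 nM; one replicate is shown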
eIF4H inh: human eIF4H binding inhibitors, primary screen, translation initiation inhibitor project, biochemical, uHTS, fluorescence polarization; actives 0.94% (n = 290,000); AID 2012, 2009; inhibition, % at 35 µM; eIF4H fluorescence polarization binding assay; Eukaryotic translation initiation factor 4H (Homo sapiens), Q15056;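 active = 50% or more with normal probe brightness, or confirmed in later tests; inconclusive = above 50% with abnormal brightness, or retests that disagree; inactive = below 50% or failed in later tests; about a fifth of its hits are not listed in these tables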;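 also: calls also rest on retests at 20 µM and on dose response follow-up; 0% = protein and probe with vehicle and 100% = probe without protein; strong numbers were not always called active; many hits fall short of the cut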
PABP polyA inh: PABP poly(A) RNA binding inhibitors, primary screen, biochemical, fluorescence polarization, uHTS; Polyadenylate-binding protein 1 (Homo sapiens), P11940; inhibition, % at 35 µM; actives 1% (n = 290,000); AID 2014, 2009;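 active = 50% or more with normal probe brightness, or confirmed in later tests; inconclusive = above 50% with abnormal brightness, or retests that disagree; inactive = below 50% or failed in later tests; about a fifth of its hits are not listed in these tables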;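 also: calls also rest on retests at 20 µM and on dose response follow-up; controls were probe without protein and protein plus probe with vehicle; some compounds called inactive have numbers as strong as hits; many hits fall short of the cut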
eIF4H inh retest: also measured in eIF4H inh; calls as there; inhibition, %; compound at 20 µM; confirmation average;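 mean of two retest wells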
PABP polyA inh retest: second read-out of PABP polyA inh, no call of its own (marks repeat the call); inhibition, %; compound at 20 µM; confirmation repeats;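 mean of two retest wells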
MT1-MMP act inh RFP: recorded beside MT1-MMP act inh, whose call it bears; RFP signal change, %; measured here: RFP expression control read;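 0 = vehicle wells; hits needed this value within 50% of zero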
* marks the source's active call; other numbers are inactive results; i = inactive; ? = inconclusive; . = not tested or not shown.

SMILES | Rce1 inh | MT1-MMP act inh | MT1-MMP act inh RFP | UUG fidelity | CSC inhib | Env fusion inh | eIF4H inh | PABP polyA inh | others
CCOC(=O)/C(=C/C=C1\Sc2cc(C)c(C)cc2N1CC)C(C)=O | i | -107.0 | 3.4 | . | . | 11.3 | ? | ?
CC(C)(Oc1ccc(Cl)cc1)C(=O)NC1CC1 | i | -1.1 | -1.7 | -17.8 | 2.7 | 8.6 | . | .
CC(C)(C)c1ccc(/C=N/NC(=S)Nc2cccnc2)cc1 | i | . | . | . | 52.3 | . | -10.3 | -3.4
Cc1ccc(C2CC(=O)Nc3cc4c(cc32)OCCO4)s1 (stereo unspecified) | i | 0.4 | -2.6 | -2.7 | 1.3 | 2.0 | -0.3 | 4.5
COc1ccc(S(=O)(=O)N2CCCOC2CNC(=O)C(=O)NCc2ccccc2C)cc1 (stereo unspecified) | . | 1.7 | -2.5 | -7.2 | . | -3.1 | . | .
O=C(NCc1ccco1)C(c1ccccc1F)N(Cc1cccnc1)C(=O)Cn1nnc2ccccc21 (stereo unspecified) | i | -3.0 | 0.2 | -9.0 | -9.7 | . | -7.6 | -1.7
COc1ccc(NC(=O)c2ccc(Br)o2)c([N+](=O)[O-])c1 | i | 2.4 | -1.8 | -2.8 | -7.0 | . | -6.1 | -2.8
Nc1ccc(-c2cc(-c3cccc(N)c3)nc(-c3ccccc3)n2)cc1 | i | 5.5 | 3.2 | -3.9 | 83.6* | -14.4 | -10.8 | 5.4
CSc1ncccc1C(=O)Nc1cccc(S(=O)(=O)N2CCCC2)c1 | . | 4.2 | 2.0 | -8.0 | -5.9 | . | . | .
O=C1/C(=C/c2ccc(Br)cc2)Oc2cc(O)ccc21 | i | -11.6 | -3.7 | . | 47.1 | -74.4 | 60.8 | 35.8* | eIF4H inh retest=14.6;PABP polyA inh retest=93.8*
O=C(COc1ncnc2sccc12)Nc1cccc(S(=O)(=O)N2CCOCC2)c1 | . | 5.2 | 1.2 | -13.3 | . | -8.4 | . | .
Cc1nc2ncc(Br)cc2[nH]1 | i | 4.8 | 3.5 | . | 4.8 | 0.8 | 1.9 | -6.9
COc1ccc(-c2cc(C(=O)N(C)Cc3nc4ccccc4c(=O)[nH]3)c3ccccc3n2)cc1OC | . | -7.1 | -3.3 | -7.9 | 22.6 | . | . | .
COc1ccc(S(=O)(=O)NCC(=O)N(CC(=O)NCc2ccccc2)Cc2ccco2)cc1 | i | -7.0 | -3.5 | -8.7 | 32.0 | 18.4 | -2.4 | 5.4
Cc1ccc2c(=O)n3c(nc2c1)C(Cc1ccccc1)NC(=O)c1cc2ccccc2cc1-3 (stereo unspecified) | . | -5.6 | -16.6 | -14.6 | . | -56.5 | . | .
O=C(COC(=O)c1cnccn1)Nc1ncc(C(F)(F)F)cc1Cl | . | -5.3 | -0.2 | -11.0 | 5.4 | 0.3 | . | .
CCOC(=O)C(NCc1ccccn1)(NC(=O)c1cccnc1)C(F)(F)F (stereo unspecified) | i | 3.5 | -2.6 | -34.3 | 18.0 | . | 8.2 | -4.2
CC1(C)Cc2c(sc3nc4n(c(=N)c23)CCCCC4)CO1 | i | -1.3 | -0.8 | -9.1 | 6.5 | . | -9.8 | 0.4
CC1(C)CC(=O)c2cc(NC(=O)c3ccc(F)cc3)c(=O)oc2C1 | i | 1.9 | 0.6 | . | -8.7 | -4.7 | 0.1 | -3.7
S=C(NCCCN1CCOCC1)NC1CC1 | i | -1.5 | 4.8 | . | -4.1 | -10.8 | 1.6 | -4.0
Cc1ccccc1C(=O)NNC(=O)/C=C\C(=O)O | i | -1.0 | 3.4 | . | -1.3 | 3.2 | 9.1 | -2.6
Cc1ccc2nc(NC(=O)CN3C(=O)NC4(CCCCC4)C3=O)sc2c1 | i | 0.1 | -0.2 | -3.4 | -9.7 | -9.4 | . | .
Cc1ccc2c3c1C1(C(=O)N3C(C)(C)CC2C)C(C#N)=C(N)Oc2cc(O)ccc21 (stereo unspecified) | i | -3.6 | -5.1 | -6.7 | -0.8 | 12.5 | -5.3 | 2.3
Cc1cc(Br)cc(Br)c1OCC(=O)NNC(=O)CCC(=O)NCc1ccccc1 | i | -3.4 | -0.1 | -6.2 | -2.4 | 0.1 | -5.7 | 2.1
Cn1ncn2c(=O)c3c(nc12)-c1ccccc1CC31CCCC1 | i | 2.1 | -1.4 | . | 10.4 | -3.0 | -13.0 | 12.2

Arranged by number of heavy atoms (high to low): three of the compounds above
SMILES | Rce1 inh | MT1-MMP act inh | MT1-MMP act inh RFP | UUG fidelity | CSC inhib | Env fusion inh | eIF4H inh | PABP polyA inh | others
COc1ccc(S(=O)(=O)NCC(=O)N(CC(=O)NCc2ccccc2)Cc2ccco2)cc1 | i | -7.0 | -3.5 | -8.7 | 32.0 | 18.4 | -2.4 | 5.4
Cn1ncn2c(=O)c3c(nc12)-c1ccccc1CC31CCCC1 | i | 2.1 | -1.4 | . | 10.4 | -3.0 | -13.0 | 12.2
O=C1/C(=C/c2ccc(Br)cc2)Oc2cc(O)ccc21 | i | -11.6 | -3.7 | . | 47.1 | -74.4 | 60.8 | 35.8* | eIF4H inh retest=14.6;PABP polyA inh retest=93.8*

The main list resumes, starting 2 compounds before the break.
SMILES | Rce1 inh | MT1-MMP act inh | MT1-MMP act inh RFP | UUG fidelity | CSC inhib | Env fusion inh | eIF4H inh | PABP polyA inh | others
Cc1cc(Br)cc(Br)c1OCC(=O)NNC(=O)CCC(=O)NCc1ccccc1 | i | -3.4 | -0.1 | -6.2 | -2.4 | 0.1 | -5.7 | 2.1
Cn1ncn2c(=O)c3c(nc12)-c1ccccc1CC31CCCC1 | i | 2.1 | -1.4 | . | 10.4 | -3.0 | -13.0 | 12.2
Cc1ccc(C(=O)Nc2ccccc2C(=O)Nc2ccccn2)cc1Cl | i | 0.3 | -3.4 | -5.9 | 24.8 | -17.3 | 0.6 | -12.5
Cc1ccc(CNC(=O)c2ccc(-n3cccc3)cc2)cc1 | i | 1.4 | 5.7 | . | . | 6.8 | 72.3 | 5.8 | eIF4H inh retest=-12.9;PABP polyA inh retest=6.1
O=C(CSc1n[nH]c(-c2ccccc2O)n1)N1CCCc2ccccc21 | i | 3.1 | -5.0 | . | 69.6 | -93.3 | -6.8 | 3.8
Cc1cc2[nH]c(=O)c(=O)[nH]c2cc1S(=O)(=O)Nc1cccc(C)c1C | i | -0.1 | 1.4 | -8.3 | -1.4 | 9.7 | 6.3 | 8.8
C/C=C(/C)C(=O)Nc1cccc(C2=NOC3(C2)C[C@H](C(N)=O)N(C(=O)c2ccccc2)C3)c1 (stereo partly specified) | i | 0.3 | 3.2 | -12.9 | 9.7 | 29.8 | 0.1 | 10.1
COc1ccc(/C=N/NC(=O)CNc2n[nH]c(=O)[nH]c2=O)cc1OC | i | -7.2 | 0.7 | -4.2 | -11.6 | . | -14.3 | -1.4
COc1ccc(CNC(=O)CNC(c2ccccc2)c2ccccc2)cc1OC | . | 3.4 | 0.8 | 4.2 | -0.4 | -1.8 | 6.4 | -4.3
Cc1ccc(Cn2c(N)c(S(=O)(=O)c3cccs3)c3nc4ccccc4nc32)cc1 | i | -35.5 | -8.8 | -4.7 | -7.1 | 18.7 | 3.0 | -0.8
COc1ccc(N2CCN(S(=O)(=O)c3ccc(OC)c(C(=O)N4CCCC4)c3)CC2)cc1 | i | 12.3 | -6.4 | -0.7 | 0.7 | 15.0 | 6.6 | -5.2
Cc1ccc(Oc2nc(C(F)(F)F)nc3ccccc23)cc1 | i | -0.9 | 2.0 | . | -0.1 | . | -6.8 | 1.6
COc1cc(N=Nc2ccc(C)cc2S(N)(=O)=O)c(C)cc1N | . | 28.9 | -1.4 | 12.3 | . | -17.7 | . | .
COCC1CCN(C(=O)CCc2nnc(C3(c4ccc(Cl)cc4)CCC3)o2)C1 (stereo unspecified) | i | 0.3 | 1.0 | -11.4 | -3.7 | -11.3 | -5.2 | -10.4
CCCNC(=O)CN(Cc1ccccc1F)S(=O)(=O)c1ccc(C)cc1 | i | -1.5 | -8.1 | 6.8 | -3.7 | -23.8 | 8.4 | -1.1
CC(C)(C)N1CC(OC(N)=O)C1 | i | 2.6 | 5.9 | . | -0.6 | 8.0 | -3.8 | 3.2
CC(CNC(=O)c1ccc(Br)o1)NC(=O)c1ccc(Br)o1 (stereo unspecified) | i | -3.4 | -3.7 | -19.3 | 3.6 | . | 0.6 | -6.2
Cc1ccc(C)c(NC(=O)CN(C)C(=O)c2cc3ccccc3o2)c1 | i | -0.8 | 5.3 | . | -24.0 | -3.1 | 1.8 | 2.0
CCc1ccc(NC(=O)CSc2nnc(COc3ccc4c(c3)CCCC4)o2)cc1 | i | -3.1 | 2.0 | -4.0 | -0.2 | . | -5.2 | -6.8
COc1cc(/C=C/C(=O)NCC(=O)N2CCC(N(C)CCN3CCOCC3)CC2)ccc1OC(C)C | i | 4.4 | 4.9 | . | -13.1 | -8.5 | 5.0 | 7.4
C=CCN1C=C(C(=O)c2ccccc2)C(=O)CC1 | . | 5.5 | 5.4 | -31.7 | . | -84.9 | . | .
Cc1ccc(C(=O)CNc2nc3c(c(=O)[nH]c(=O)n3C)n2Cc2ccccc2)cc1 | i | 1.9 | -0.5 | -24.1 | 6.6 | . | -14.8 | -12.3
Cc1c(CC(=O)O)c(=O)oc2c(C)c3occ(-c4ccc(Br)cc4)c3cc12 | i | 4.8 | -9.1 | -11.4 | -8.3 | -1.2 | -2.3 | 28.9
O=C(CSc1nnc(NC(=O)c2cccc(F)c2)s1)NC1CCCC1 | i | 2.0 | 0.3 | . | -1.3 | -7.9 | 3.5 | -5.4
O=C(Nc1ccccc1C(=O)NC(Cc1ccccc1)C(=O)O)c1ccccc1 (stereo unspecified) | i | -6.0 | -6.3 | -17.6 | 7.0 | -7.2 | -1.0 | -0.7
COc1ccc(/C=C\c2onc(C)c2S(=O)(=O)N2CCC(C(=O)NCc3ccco3)CC2)cc1 | i | 3.4 | -6.7 | . | 0.9 | -2.8 | -1.5 | -0.1
Cc1nc2ccccc2cc1C(=O)N/N=C/c1ccccc1[N+](=O)[O-] | i | 4.1 | 5.7 | . | -13.3 | -0.7 | -0.1 | 15.8
CCOC(=O)c1c(NC(=O)c2c(Br)cnn2CC)sc(C)c1C | i | -7.3 | -3.0 | -13.7 | -14.2 | -20.5 | 2.9 | 11.5
CCOC(=O)C1=CC[C@@H](c2ccccc2)N(S(=O)(=O)c2ccc(C)cc2)[C@H]1C#N | . | -4.0 | -6.7 | -10.2 | . | -19.6 | . | .

Reprinted at random: 2 entries already listed, in no set order.
SMILES | Rce1 inh | MT1-MMP act inh | MT1-MMP act inh RFP | UUG fidelity | CSC inhib | Env fusion inh | eIF4H inh | PABP polyA inh | others
Cc1ccc(C(=O)CNc2nc3c(c(=O)[nH]c(=O)n3C)n2Cc2ccccc2)cc1 | i | 1.9 | -0.5 | -24.1 | 6.6 | . | -14.8 | -12.3
CCCNC(=O)CN(Cc1ccccc1F)S(=O)(=O)c1ccc(C)cc1 | i | -1.5 | -8.1 | 6.8 | -3.7 | -23.8 | 8.4 | -1.1
